Compound activity (PubChem)
VDR inh: blocks the human vitamin D receptor. P11473. VDR-SRC2-3 peptide fluorescence polarization, 2 h. Potency, µM, without a hit: max response, negative = inhibition, usual class: inhibitors. 400,000 tested, 0.93% active. AID 504847; active = well fitted inhibition curve with a large enough effect; inconclusive = small, poorly fitted or top-dose-only effect, or another doubt; inactive = no such curve, though single readings can be large or run the other way; also: series mostly up to about 120 µM
Target sequence (P11473 whole entry, looked up): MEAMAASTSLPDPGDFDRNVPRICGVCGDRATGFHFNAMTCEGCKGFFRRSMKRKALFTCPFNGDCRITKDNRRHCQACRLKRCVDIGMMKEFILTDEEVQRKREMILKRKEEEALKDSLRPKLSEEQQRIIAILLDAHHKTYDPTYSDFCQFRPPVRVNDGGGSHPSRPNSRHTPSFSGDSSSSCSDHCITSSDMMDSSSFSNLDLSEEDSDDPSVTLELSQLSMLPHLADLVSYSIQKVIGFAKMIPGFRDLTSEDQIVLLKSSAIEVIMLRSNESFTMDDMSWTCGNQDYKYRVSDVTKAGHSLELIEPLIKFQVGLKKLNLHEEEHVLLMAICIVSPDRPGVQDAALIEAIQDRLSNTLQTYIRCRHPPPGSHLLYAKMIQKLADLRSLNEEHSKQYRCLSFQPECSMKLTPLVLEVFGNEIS
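The screen uses fluorescence polarization to detect compounds that interfere with recruitment of the SRC2-3 coactivator peptide to VDR; plates are read after 2 h at room temperature.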
Starred values were filed as active, the others as inactive; ? = inconclusive; & = joins results of further samples. % is scaled to controls: 0 for no effect and ±100 for the full control effect; potency is read from the fitted curve at half-maximal effect. These rows are one share of the data, so the mix of outcomes need not match the whole.

VDR inh,SMILES
-9%,Cn1nc(C(=O)Nc2ccc(S(=O)(=O)N3CCCCC3)cc2)ccc1=O
50µM*,CC(C)n1c(=O)[nH][nH]c1=S
-5%,CC1CCCCC12NC(=O)N(CC(=O)Nc1cccnc1Cl)C2=O (stereo unspecified)
-19%,COc1ccccc1N1CCN(C(=O)CCN2C(=O)c3cccc4cccc(c34)C2=O)CC1
-11%,COC(=O)CCC(C)C1CCC2C3CCC4CC(O)CCC4(C)C3=CC(=O)C12C (stereo unspecified)
-11%,CC(C)CN(C(=O)CN(C)S(=O)(=O)c1ccc(Cl)cc1)C1CCS(=O)(=O)C1 (stereo unspecified)
-20%,CCCNc1nc2c(c(=O)[nH]c(=O)n2C)n1CCc1ccccc1
21%,Nn1c(SCC(=O)Nc2ccc3c(c2)OCO3)nnc1C1CC1
3%,CCOC(=O)O[C@]1(C(=O)COC(=O)CC)CC[C@@H]2[C@@H]3CCC4=CC(=O)C=C[C@@]4(C)[C@H]3[C@H](O)C[C@]21C
79µM*,O=C(COC(=O)c1cc(-c2ccc(Cl)s2)nc2ccccc12)NCc1ccco1
-7%,CC(=O)c1cc2c(ccc3ccccc32)oc1=O
-3%,O=c1[nH]c(COc2ccc(Br)cc2Cl)nc2ccccc12
-26%,COc1ccccc1C(=O)Nc1nnc(-c2ccccc2)s1
7%,COC(C[C@@H]1O[C@@H]1[C@@H](O)COCc1ccccc1)OC
-12%,CCn1c(SCC(=O)Nc2ccc(F)cc2)nc2ccccc2c1=O
2%,CCCCCN1CC(O)=C(c2nc(-c3ccc(Cl)cc3)cs2)C1=N
23%,CCC(C(=O)NCCc1ccc(OC)cc1OC)n1nc(C)n2c(cc3occc32)c1=O (stereo unspecified)
4%,O=C(CC1N=C2c3ccccc3N=C(SCc3ccccc3F)N2C1=O)NCc1cccs1 (stereo unspecified)
-1%,Cc1ccc(S(=O)(=O)N2CCC(C(=O)Nc3cccnc3)CC2)cc1
23%,CCOCCCNC(=O)c1c(-c2ccccc2)noc1C
-4%,O=C(NCC1CCCO1)C1CCCN1C(=O)Nc1ccc(Cl)c(Cl)c1 (stereo unspecified)
-8%,CC(C)c1ccc(/C=N/NC(=O)c2cccc(S(=O)(=O)N3CCOCC3)c2)cc1
-2%,CCOC(=O)CNC(=O)O[C@@H]1C(=O)c2cc(Br)ccc2O[C@H]1c1ccc2c(c1)OCO2
-8%,O=C(/C=C/c1ccccc1)N1CCCN(C(=O)/C=C/c2ccccc2)CC1
-6%,Cc1ccccc1NC(=O)c1ccc(F)c(S(=O)(=O)N2CCc3ccccc3C2)c1
24%,O=C(CN1CCC(NC(=O)c2ccccc2F)CC1)Nc1ccc2c(c1)OCO2
-6%,Cc1ccc2oc3c(c(=O)c2c1)C(c1cccc(Cl)c1)N(CCCN1CCOCC1)C3=O (stereo unspecified)
-27%,COc1ccc2[nH]cc(CCNc3ncncc3-c3ccccc3C)c2c1
-2%,O=C(Nc1ccc(Cl)c(S(=O)(=O)N2CCCCC2)c1)c1ccncc1
-9%,CCn1ncc(/C=N\NC(=O)COc2ccccc2)c1C
4%,COc1ccccc1N(CC(=O)Nc1ccc(F)c(F)c1)S(C)(=O)=O
-2%,CCCCS(=O)(=O)N1CCC(C(=O)Oc2ccccc2OC)CC1
3%,O=C(N/N=C/c1ccccn1)C1CC1
1%,O=c1oc2ccccc2cc1-c1cn(-c2ccccc2)c(=S)[nH]1
6%,O=C(COc1ccc(F)cc1)NCC1(N2CCOCC2)CCCCC1
-1%,COc1ccccc1NS(=O)(=O)c1ccc2oc(=O)ccc2c1
-10%,Cn1c(CCC(=O)Nc2ccc(S(C)(=O)=O)cc2)nc2cc(S(=O)(=O)N3CCOCC3)ccc21
-16%,O=C(Nc1ccccc1Cl)C1(c2ccccc2)CC1(Cl)Cl (stereo unspecified)
0%,N#Cc1nc(Cc2cccc3ccccc23)oc1NCc1ccc2c(c1)OCO2
-1%,O=C(O)C1CCC(N2C(=O)c3cccc([N+](=O)[O-])c3C2=O)CC1 (stereo unspecified)
9%,O=C(NCCc1ccccc1)c1ccc2c(c1)N(Cc1ccccc1Cl)C(=O)c1ccccc1S2
-17%,CN1C(=O)[C@H]2[C@@H](C3CC3)N3C(=O)CN(Cc4ccc(-c5ccccc5)cc4)C(=O)[C@@]3(C)[C@H]2C1=O
-8%,CC(C)(C)C(=O)Nc1nnc(SCC(=O)NC2CCCC2)s1
?,O=C1/C(=C/C=C/c2ccccc2)Oc2c1ccc(O)c2CN1CCN(CCO)CC1
-9%,CC(NC(=O)C1CCC(CNC(=O)[C@@H]2Cc3ccccc3CN2)CC1)c1ccccc1 (stereo partly specified)
9%,O=C(Cn1c(=O)oc2cc(S(=O)(=O)N3CCCC3)ccc21)NCc1ccc(Cl)cc1
12%,Nc1c(C(=O)NCc2ccc3c(c2)OCO3)nnn1-c1ccc(OC(F)(F)F)cc1
12%,Cc1c(C)c2cc3c(C)coc3cc2oc1=O
15%,Cc1ccn2cc(-c3ccc(NS(=O)(=O)c4ccccc4)cc3)nc2c1
-16%,C/C(=N\NC(=S)NC1CCCCC1)c1ccc(C)o1

Shown with bars between the fields: 17 of the compounds above.
canonical_smiles | VDR inh
O=c1oc2ccccc2cc1-c1cn(-c2ccccc2)c(=S)[nH]1 | 1%
O=C(COc1ccc(F)cc1)NCC1(N2CCOCC2)CCCCC1 | 6%
COc1ccccc1NS(=O)(=O)c1ccc2oc(=O)ccc2c1 | -1%
Cn1c(CCC(=O)Nc2ccc(S(C)(=O)=O)cc2)nc2cc(S(=O)(=O)N3CCOCC3)ccc21 | -10%
O=C(Nc1ccccc1Cl)C1(c2ccccc2)CC1(Cl)Cl (stereo unspecified) | -16%
N#Cc1nc(Cc2cccc3ccccc23)oc1NCc1ccc2c(c1)OCO2 | 0%
O=C(O)C1CCC(N2C(=O)c3cccc([N+](=O)[O-])c3C2=O)CC1 (stereo unspecified) | -1%
O=C(NCCc1ccccc1)c1ccc2c(c1)N(Cc1ccccc1Cl)C(=O)c1ccccc1S2 | 9%
CN1C(=O)[C@H]2[C@@H](C3CC3)N3C(=O)CN(Cc4ccc(-c5ccccc5)cc4)C(=O)[C@@]3(C)[C@H]2C1=O | -17%
CC(C)(C)C(=O)Nc1nnc(SCC(=O)NC2CCCC2)s1 | -8%
O=C1/C(=C/C=C/c2ccccc2)Oc2c1ccc(O)c2CN1CCN(CCO)CC1 | ?
CC(NC(=O)C1CCC(CNC(=O)[C@@H]2Cc3ccccc3CN2)CC1)c1ccccc1 (stereo partly specified) | -9%
O=C(Cn1c(=O)oc2cc(S(=O)(=O)N3CCCC3)ccc21)NCc1ccc(Cl)cc1 | 9%
Nc1c(C(=O)NCc2ccc3c(c2)OCO3)nnn1-c1ccc(OC(F)(F)F)cc1 | 12%
Cc1c(C)c2cc3c(C)coc3cc2oc1=O | 12%
Cc1ccn2cc(-c3ccc(NS(=O)(=O)c4ccccc4)cc3)nc2c1 | 15%
C/C(=N\NC(=S)NC1CCCCC1)c1ccc(C)o1 | -16%

Next records follow.
VDR inh,SMILES
-4%,C/C(Cc1ccccc1)=N\NC(=O)CNC(=O)c1ccccc1Br
5%,Cc1cc(/C=C2\SC(=Nc3ccc(F)cc3)NC2=O)c(C)n1-c1ccc(S(N)(=O)=O)cc1
4%,COc1ccc(C2C(C(C)=O)=C(O)C(=O)N2CCc2c[nH]c3ccccc23)cc1OC (stereo unspecified)
-2%,COC(=O)c1cc(OC)c(OC)cc1N
-17%,COc1ccc(CNC(=O)c2cccc(-c3ccc(C)c4ccccc34)n2)cc1
-16%,CCOC(=O)CSc1n[nH]c(=S)s1
16%,CC1(C)Cc2cccc(OCC(=O)O)c2O1
-11%,C=CCC[C@@H](Cc1ccc(F)cc1)C(=O)OC[C@@H](C)NC(=O)[C@@H](CC=C)CC(=O)N[C@H](CO)Cc1ccccc1
?,Cc1[nH]n(-c2ccccc2)c(=O)c1C(C[N+](=O)[O-])c1ccc(F)cc1 (stereo unspecified)
-2%,CCCCCCCC(=O)NC(Nc1ccc(S(N)(=O)=O)cc1)C(Cl)(Cl)Cl (stereo unspecified)
-11%,CCOc1cccc(-c2nnc3sc(-c4cc(OC)c(OC)c(OC)c4)nn23)c1
0%,COc1ccc(C(=O)Sc2ccc(Cl)cc2)cc1OC
-12%,CCOC(=O)c1oc2ccccc2c1N
4%,Nc1nc(Nc2cccc(Cl)c2)sc1C(=O)c1ccc(F)cc1
-9%,COc1ccc(C)cc1S(=O)(=O)N1CCCC(C(=O)NC2CC2)C1 (stereo unspecified)
4%,CN(CC(=O)Nc1ccc(N2CCOCC2)cc1)CC(=O)Nc1cccc(C#N)c1
?,CCCCOc1ccc(C2OC34CCCCC3C(C#N)(C#N)C2(C#N)C(=N)O4)cc1 (stereo unspecified)
9%,CN(C(=O)c1ccc(-c2nn(C)c(=O)c3ccccc23)cc1)C1CCCCC1
-6%,O=C(c1ccc(OC2CCN(C/C=C/c3ccc(F)cc3)CC2)cc1)N1CCCCC1
-6%,CCn1c(SCC(=O)Nc2ccc(Cl)cc2)nc2nc3c(cc2c1=O)CCCC3
-7%,Cc1onc(-c2ccccc2)c1-c1n[nH]c(=S)n1-c1ccccc1Cl
12%,CC(C)(C)c1ccc(C(=O)NC(Cc2c[nH]c3ccccc23)C(=O)OCC(=O)c2ccc(Br)cc2)cc1 (stereo unspecified)
-2%,O=C(N/C(=C\c1ccc(Br)cc1)C(=O)N1CCOCC1)c1ccco1
19%,Cc1ccc(CNC(=O)C2CCCN2S(=O)(=O)c2ccc3c(c2)C(C)(C)C(=O)N3C)cc1 (stereo unspecified)
-21%,COc1ccc(OC)c(NP2(=O)OCC(C)([N+](=O)[O-])CO2)c1 (stereo unspecified)
-1%,COc1ccc(Cl)cc1S(=O)(=O)N1CCC(C(=O)NCCC2=CCCCC2)CC1
-19%,Nc1ccc(C2=Nc3cccc4cccc(c34)N2)cc1
-13%,CC(=O)NC(N1CCCCC1)C(F)(F)C(F)(F)C(F)(F)C(F)F (stereo unspecified)
-14%,CCn1cc(/C=C(\NC(=O)c2ccccc2F)C(=O)NCCCN2CCOCC2)c2ccccc21
6%,Cc1ccnc(SC2CC(=O)N(c3ccc([N+](=O)[O-])cc3)C2=O)n1 (stereo unspecified)
-15%,CCC(C)Sc1ccc([C@@H]2[C@@H]3C(=O)N(CC)C(=O)[C@@H]3[C@]3(C(=O)OC)CCCCN23)cc1OC (stereo partly specified)
-14%,N#CC(/C(=N/S(=O)(=O)c1cccs1)c1ccccc1)c1nc2ccccc2[nH]1 (stereo unspecified)
2%,O=C(c1cccs1)N1C(=O)c2cccc3cccc1c23
10%,CC(=O)NCCc1nc2ccccc2n1Cc1cccc(C)c1
-6%,CCOc1ccc(C(Nc2ccc(C)cc2)P2(=O)OCC(C)(C)CO2)cc1 (stereo unspecified)
-2%,O=C(O)CCCCCCCCc1cn(CN2C(=O)c3ccccc3C2=O)nn1
-5%,COc1cccc(-c2csc3nnc(SCC(=O)NCc4cccs4)n23)c1
12%,Cc1ccc(NC(=S)NC(CO)C(O)c2ccc([N+](=O)[O-])cc2)cc1 (stereo unspecified)
-1%,O=C(NCCCCCCNC(=O)OC1CCS(=O)(=O)C1)OC1CCS(=O)(=O)C1 (stereo unspecified)
19%,Cc1nn(CC(=O)N2CCCCC2)c(=O)c2cc3occc3n12
12%,Cc1cc(F)ccc1S(=O)(=O)N1CCCOC1CNC(=O)C(=O)NC1CCCCC1 (stereo unspecified)
-3%,O=C(CCSc1nnc(-c2ccncc2)o1)Nc1ccc(F)cc1
26%,Cc1cccc(C)c1NC(=O)CSc1nc(C)c(CC(=O)c2ccc(Br)cc2)c(C)c1C#N
11%,CN1CCN(c2ccc(S(=O)(=O)N3CCCCC3)cc2N)CC1
7%,Cc1ccc(NC(=O)c2c(C)oc3ncnc(N4CCCCC4)c23)cc1Cl
19%,Cc1cccc(-c2nc3c(cnn3-c3ccccc3)c(=O)n2-c2ccc(Br)cc2)c1
-3%&-5%,C/C(N)=C(/C#N)C(=O)COC(=O)C(NS(=O)(=O)c1ccc(Cl)cc1)C(C)O (stereo unspecified)
-10%,Cc1cc(C)c(S(=O)(=O)Nc2ccc(O)c(Sc3ncn[nH]3)c2)c(C)c1
6%,CCOC(=O)NC(=O)CSc1nc(C)cc(C(F)(F)F)c1C#N
?,CCn1c(SCC(=O)Nc2nc(C)cs2)nnc1C(C)NC(=O)c1ccccc1 (stereo unspecified)

(next part)
VDR inh,SMILES
-4%,COc1ccc(N2CC(NS(=O)(=O)c3ccc4ccccc4c3)CC2=O)cc1 (stereo unspecified)
-8%,O=C(NCC(c1ccco1)N1CCOCC1)c1ccc(F)c(F)c1 (stereo unspecified)
14%,CSc1ccccc1NC(=O)CN(C)C(=O)CCc1c[nH]c2ccccc12
-6%,CC(=O)CSc1nnc(NC(=O)CCc2ccccc2)s1
-19%,Cc1cc(N2C(=O)C(O)=C(C(=O)c3cccs3)C2c2cccc(O)c2)no1 (stereo unspecified)
2%,O=C(Nc1ccc(S(=O)(=O)NC2=NCCCCC2)cc1)C1COc2ccccc2O1 (stereo unspecified)
8%,CCCC1=[N+](CC(=O)c2ccccc2)CCn2cccc21
-20%,Cc1ccc(S(=O)(=O)NN2C(=O)c3ccccc3NC2(C)C)cc1
1%,Cc1cccc(C(=O)Nc2ccc(C(=O)c3ccccc3)cc2)c1
-12%,O=C(c1ccccc1)c1c[nH]c(C(=O)C(Cl)(Cl)Cl)c1
-11%,COc1ccc(Cl)cc1S(=O)(=O)N1CCCC1
-15%,CC(=O)c1c(C)[nH]c(C(=O)OCC(=O)NCCC(C)C)c1C
-16%,CCOC(=O)C1CCN(S(=O)(=O)c2ccc3c4c2CC(=O)N4CC(C)S3)CC1 (stereo unspecified)
12%,Cc1ccc(N2CC(C(=O)N3CCCc4ccccc43)CC2=O)cc1 (stereo unspecified)
7%,CCCCn1nnc(NC(=O)COc2ccc(Cl)c(C)c2)n1
